Screening results as filed in PubChem BioAssay.
Mtb hypoxia rep = PubChem AID 1159583. M. tuberculosis hypoxia-regulated fluorescent reporter, fluorescence. fluorescence inhibition, % (no concentration beside the values). actives 0.1% (n = 300,000);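 active = 35 to 45% if threefold the growth effect, above 45% if 1.5-fold the growth effect; inactive = the rest, general growth blockers included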;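 also: wells of about 50 µL received 100 nL stock; 0% = vehicle wells and 100% = reference inhibitor wells; whole bacteria with a GFP reporter of the hypoxia response; strong numbers were not always called active; many hits fall short of the cut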
RN4220 kill = growth inhibition of S. aureus RN4220, primary screen, OD600 | inhibition, % (test concentration not listed) | 16 h | actives 0.33% (n = 330,000) | AID 1259311, 2017;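 active = z-score of -3 or lower and OD600 up to 0.18 on both plates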;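 also: plate controls were untreated cells for no effect and reference antibiotic for full effect; stock transfer was 100 nL into about 80 µL; one replicate is shown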
PrP 5UTR inh = inhibition of PrP 5' UTR reporter expression; inhibition, % (no concentration beside the values); actives 0.35% (n = 340,000); AID 488862, 2010; cell-based PrP 5' UTR mRNA reporter, plate reader;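 active = every replicate at 50% or more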;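 also: 0 = median of the neutral control wells; tested in H4 reporter cells; numbers are from one replicate; inactives centre near -14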
BJeLR viability = MLPCN primary cell-based screen for lethality selective to Ras in HRASV12 cells. actives 0.17% (n = 300,000). inhibition, % (concentration not given with the values). BJeLR (HRASV12) viability, CellTiter-Glo ATP luminescence, 48 h; reference of the scale not given here. AID 1554, 2009;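 active = replicate mean above 50%; inconclusive = above 50% but judged a plate artefact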;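 also: 50 nL library stock added to about 25 µL; numbers are from one replicate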
ugtP null kill = growth inhibition of ugtP-null S. aureus, primary screen, RN4220 ugtP deletion, OD600 | 16 h; some inactives read as strong as hits | growth inhibition, % (no concentration beside the values) | actives 0.54% (n = 330,000);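 active = z-score under -3 and OD600 up to 0.15 on both plates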;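 also: plate controls were untreated wells for no effect and antibiotic for full effect; wells of about 80 µL received 100 nL stock; the first replicate is given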
Autofluor counter = compound fluorescence in toxin protease inhibitor counterscreen; actives 3.1% (n = 360,000); fluorescence intensity (concentration not given with the values); compound autofluorescence counterscreen, microsphere flow cytometry; hits give high values;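 active = at least 3 SD above the mean of all compounds, about 16000 in these data; inconclusive = too few beads counted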;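 also: 100 nL of 1 mM stock went into each well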
Mtb hypoxia rep growth = further read-out of Mtb hypoxia rep, marked with its call; growth inhibition, %; measured here: M. tuberculosis growth (absorbance);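 0% = vehicle and 100% = reference antibiotic; read after six days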
The depositor's hits bear a star; ? = inconclusive; / = not tested or not shown.

SMILES	Mtb hypoxia rep	Mtb hypoxia rep growth	RN4220 kill	PrP 5UTR inh	BJeLR viability	ugtP null kill	Autofluor counter
Cc1ccc2nc3c(cc(C(=O)NCc4ccco4)c(=N)n3C3CCCC3)c(=O)n2c1	/	/	/	1.5	-1.9	/	5593
CCN(CC)c1ccc(NC(=O)CSc2nc(C3CC3)nc3ccccc23)cc1C	0.7	3.1	1.2	-11.9	19.2	1.6	3457
CC1=C(C(=O)NCc2ccco2)C2(CCC(C)CC2)OC1=O (stereo not given)	6.9	-1.1	6.4	-7.1	0.9	3.9	5054
O=C(NN=Cc1ccc([N+](=O)[O-])o1)c1cn(-c2ccccc2)nc1-c1ccccc1	-9.2	9.6	99.5*	/	/	99.3*	/
CC(C)NC(=O)NCCCCCCS(C)=O (stereo not given)	/	/	1.9	-14.9	7.2	9.4	4351
Cc1cc(-c2ccccc2)nc(SC(C(=O)O)c2ccccc2)n1 (stereo not given)	1.0	-2.0	4.1	-33.1	-6.1	-3.3	3825
CCOC(=O)c1cnc(SC)nc1Nc1cccc2ccccc12	5.1	2.9	0.7	-34.1	8.9	-8.0	8604
CCCNC(=O)N1CCN(S(=O)(=O)c2ccc3c(c2)OCCO3)CC1	-2.2	-1.3	2.7	-13.5	/	3.3	8630
CCCCOC(=O)Cn1c(-c2ccccc2)nc2ccccc2c1=O	1.7	1.0	-0.7	-15.5	-8.5	61.4	1944
C/C(=N/Nc1ccc(Cl)cc1)c1cnnc(-c2ccccc2)n1	/	/	/	-1.0	-3.2	/	3343
COc1ccc(C)cc1CN(C)c1ccc(S(=O)(=O)N2CCN(C)CC2)cn1	7.3	2.9	1.5	-32.8	/	10.2	6603
CCN(CCn1cccn1)C(=O)CC1C(=O)NCCN1CCc1ccccc1 (stereo not given)	3.9	1.0	0.1	-4.3	-1.9	3.8	5906
CCOc1ccccc1-n1c(O)c(C=Nc2c(C)n(C)n(-c3ccccc3)c2=O)c(=O)[nH]c1=O	0.3	-8.6	3.1	-15.4	-8.3	9.0	8527
CN(Cc1ccccc1)C(=O)COC(=O)c1ccccc1SCC(=O)N1CCCC1	7.0	2.0	5.2	-20.3	/	0.7	6296
COc1ccc(Cl)cc1C(=O)NNC(=S)NC(=O)c1cc(-c2ccccc2)nc2ccccc12	4.1	7.6	93.4*	-10.1	9.0	97.3*	2981
COc1ccc(S(=O)(=O)Nc2cccc(S(=O)(=O)N3CCCCC3)c2)cc1	4.6	7.5	7.6	-6.8	/	-3.2	3741
CCOC(=O)c1c(S(=O)(=O)N2CCc3ccccc32)c(C)n(C)c1C	5.3	0.6	1.4	-30.1	-2.1	5.6	5343
CC1(C)CC(=O)C2=C(C1)N=c1s/c(=C/c3ccc(F)c(F)c3)c(=O)n1C2c1ccc(F)cc1 (stereo not given)	/	/	/	-15.6	-10.5	/	2864
CC(C)(C)NC(=O)Cn1cc(C#N)c2cc(Br)ccc21	1.3	3.7	-1.2	-3.1	0.0	-5.2	10538
c1ccc2c(c1)ccc1nnnn12	9.8	1.5	1.0	-30.1	-5.3	3.6	4199

One compound at a time, from the list above. Screens in order: Mtb hypoxia rep	Mtb hypoxia rep growth	RN4220 kill	PrP 5UTR inh	BJeLR viability	ugtP null kill	Autofluor counter
`Cc1ccc2nc3c(cc(C(=O)NCc4ccco4)c(=N)n3C3CCCC3)c(=O)n2c1` as listed: /	/	/	1.5	-1.9	/	5593
`CCN(CCn1cccn1)C(=O)CC1C(=O)NCCN1CCc1ccccc1` (stereo not given) as listed: 3.9	1.0	0.1	-4.3	-1.9	3.8	5906
`CCCCOC(=O)Cn1c(-c2ccccc2)nc2ccccc2c1=O` as listed: 1.7	1.0	-0.7	-15.5	-8.5	61.4	1944

Later entries
SMILES	Mtb hypoxia rep	Mtb hypoxia rep growth	RN4220 kill	PrP 5UTR inh	BJeLR viability	ugtP null kill	Autofluor counter
COc1ccccc1NC(=O)CN1CCC(c2nc3ccccc3[nH]2)CC1	-3.1	0.5	1.7	-8.8	-0.5	9.0	3108
NS(=O)(=O)c1ccc(NS(=O)(=O)c2ccc(C3CNC(=O)C3)cc2)cc1 (stereo not given)	2.8	4.3	-2.0	-6.8	3.0	-0.9	2833
COCCC(=O)N1CCc2c([nH]c3ccccc23)C1C(C)(C)C (stereo not given)	-5.3	-0.2	-2.6	-18.8	2.0	-15.2	4358
COc1cccc(N2CCN(C(=O)c3ccc(CS(=O)c4ccc(Cl)cc4)o3)CC2)c1 (stereo not given)	-6.5	-16.7	0.0	6.9	4.2	2.7	5489
COc1ccc(CNC(=O)C(c2ccc(C)o2)N(C(=O)c2csnn2)c2ccc(C(C)C)cc2)cc1 (stereo not given)	7.8	1.2	7.4	-63.0	-7.0	9.5	2917
O=Cc1cn(Cc2ccc(Br)cc2)c2ccccc12	1.6	3.7	1.9	10.7	-12.2	-2.3	3590
CC(C)c1nc(SCc2c(F)cccc2Cl)c2c(=O)n(C)c(=O)n(C)c2n1	-0.2	10.8	-19.1	-92.0	-0.8	11.8	5913
COc1ccc(OCCOC(=O)CNS(=O)(=O)c2ccc(SC)c([N+](=O)[O-])c2)cc1	3.2	3.4	1.6	-31.5	0.6	2.4	6081
CCC(=O)N1CCN=C1SCc1cc(C)ccc1C	1.9	-2.7	-1.9	-9.6	1.3	1.2	4471
CCC1CCCCN1CCCNC(=O)Cn1c(=O)c2cccn2c2ccccc21 (stereo not given)	16.7	5.2	0.8	-18.2	10.4	5.1	5227
Cc1cc2c(c(=O)n1C)C(Cc1ccccc1)C(C#N)=C(N)O2 (stereo not given)	5.9	7.2	7.2	-19.8	4.6	-6.0	8199
O=C(CSc1nc(O)cc(=O)n1-c1ccccc1)N1CCCCC1	6.4	4.2	2.4	-21.3	-4.5	2.2	10906
Cc1occc1C(=O)Nc1cccc(Cn2cccn2)c1	4.9	-5.3	4.5	-21.6	-2.5	0.1	16845*
Cc1cccc(NS(=O)(=O)c2ccc(OCC(=O)N3CCCC3)cc2)c1	3.8	5.4	3.9	-14.6	9.9	1.3	?
O=c1[nH]c(=O)n(-c2ccccc2)c2c1C(C(F)(F)F)(C(F)(F)F)N=C(CCC1CCCCC1)N2	3.2	4.0	2.7	-25.6	-7.0	-22.7	10670
COc1ccccc1C(=O)Nc1cccc(N(C)S(C)(=O)=O)c1	/	/	4.7	-25.5	5.3	-0.8	2797
O=C(NN=Cc1cccnc1)c1cccc(NC(=O)c2ccccc2Cl)c1	1.4	0.2	1.5	/	/	7.1	/
Cc1c(Cl)cnc(NC(=O)COC(=O)c2ccncc2)c1Cl	4.0	1.4	4.6	-12.8	/	-1.6	?
CN(C(=O)CSc1ncnc2sccc12)C1CCS(=O)(=O)C1 (stereo not given)	5.8	-4.1	5.8	-42.2	/	5.7	8690
COc1ccccc1NC(=S)N(Cc1ccc(C)cc1)Cc1cccnc1	-20.1	-4.1	2.4	4.9	-8.6	-6.6	4486
COC(=O)C(C)N(C(=O)c1cccc2ccccc12)c1c(C)cccc1C (stereo not given)	14.0	16.0	4.3	-39.6	5.6	-1.1	9666
O=[N+]([O-])c1ccc2nc(Cl)nc(-c3ccccc3)c2c1	/	/	/	-7.5	4.1	/	3805
Cc1ccc(-c2nnc(N3CCCCC3)c3ccccc23)cc1S(=O)(=O)NCC1CCCO1 (stereo not given)	0.2	3.7	-0.5	/	-4.0	-11.1	10824
Cc1ccccc1N(CC(=O)Nc1ccccc1C(=O)O)S(C)(=O)=O	4.7	-1.1	1.8	-22.3	6.6	8.0	8130
COC(=O)c1ccc(N2CCc3ccccc32)c([N+](=O)[O-])c1	6.7	6.1	3.1	-35.1	7.2	9.4	3708
CC(=O)c1c(-c2ccccc2)c2cc(Cl)ccc2[nH]c1=O	4.4	4.6	6.0	-9.9	-19.2	1.1	4463
CCc1nc(Nc2ccccc2F)c2oc3ccccc3c2n1	-4.0	-3.5	22.8	-20.8	2.4	20.2	4380
CCCC(O)(CCC)C(=O)NN1CCCCC1	10.5	9.2	4.9	-21.9	3.7	6.2	11521
CC/C(=N/NC(=O)CNc1ccc(Cl)cc1C)c1ccccc1	/	/	/	-18.8	-14.7	/	2574
Cc1cc(NS(=O)(=O)c2ccc(NC(=O)c3cnc4sccn4c3=O)cc2)nc(C)n1	6.8	8.5	-11.2	-9.8	-19.7	-2.7	5931
Cn1nnc2cc(C(=O)Nc3ccccc3F)ccc21	-1.1	-6.3	4.2	-34.1	0.4	4.1	4060
COC(=O)c1ccc(C)c(NS(=O)(=O)c2ccc3c(c2)OCCO3)c1	-5.9	-12.4	3.3	-24.5	-1.2	-3.3	8424
C[C@@H](C(=O)NCc1c(F)cccc1Cl)N1C(=O)N2CCc3c([nH]c4ccccc34)[C@@]2(C)C1=O	/	/	2.2	-15.4	-4.6	-4.0	4126
CC1=C(C(=O)Nc2ccc(F)c(F)c2)C(c2cccs2)NC(=S)N1 (stereo not given)	2.7	1.3	2.0	-2.5	10.3	8.9	2480
CCOc1ccccc1/C=N/OCC(=O)NCc1ccc(F)cc1	/	/	/	-7.4	-0.5	/	4370
CC(C)CC(COCc1ccc(Cl)cc1)N1CCN(C(=O)c2ccc(C(F)(F)F)cc2)CCC1=O (stereo not given)	1.1	-8.6	-3.2	4.0	-2.0	-38.8	3922
COCCN1Cc2cccc(C(=O)Nc3ccc(S(=O)(=O)N4CCCCCC4)cc3)c2C1=O	8.4	-4.1	0.3	-12.9	1.4	6.7	4249
COc1ccc(C(=O)CSc2nnc(CNC(=O)c3ccco3)n2C)cc1OC	4.8	6.6	3.5	-12.8	-17.0	0.4	3820
C/C(=N\NC(=O)CNC(=O)C(c1ccccc1)c1ccccc1)c1ccc(C(C)(C)C)cc1	/	/	/	-15.1	5.1	/	7250
CC(C(=O)Nc1ccc(Cl)cc1)N(C)Cc1cccs1 (stereo not given)	16.3	16.1	-7.4	-2.1	12.4	22.4	3752
Cc1cc(C)c(NC(=O)COC(=O)c2cccc3c2C(=O)c2ccccc2C3=O)c(C)c1	7.0	4.5	18.5	-2.1	-5.8	5.0	2059
C=CCNc1nc(-c2ccc3c(c2)OCCO3)cs1	12.7	-2.9	4.0	-94.8	-2.6	7.6	/
COc1ccc(-c2csc(Nc3ccccn3)n2)cc1OC	-5.7	7.0	4.3	-83.4	0.4	-13.6	4222
Cc1cc(N2CCN(C)CC2)nc2ccc(NC(=S)N3CCN(c4ccccn4)CC3)cc12	-3.6	6.6	2.9	-13.3	9.1	5.1	4658
CCCc1nc2ccccc2c(C(=O)OCC(=O)N2CCc3ccccc32)c1CC	-12.0	-5.8	-7.4	-20.8	4.4	-3.9	9629
CC(=O)N1N=C(c2cccc([N+](=O)[O-])c2)OC1c1cccc(Br)c1 (stereo not given)	-3.2	10.3	24.2	-27.8	5.8	-15.3	3887
Cc1cccc(NC(=O)CSc2nc3[nH]c(=O)cc(O)c3s2)c1	10.1	5.6	11.3	-6.0	/	1.9	5943
COc1ccc(NC(=O)COC(=O)CC2CCCC2)cc1Cl	7.0	2.9	1.0	-27.5	-3.2	2.4	?
COc1ccc(S(=O)(=O)N(CC(=O)NCc2ccco2)c2ccc(F)cc2)cc1	12.7	1.5	2.5	-8.5	-0.6	13.4	4226
COc1cc(/C=C2\C(=O)NC(=O)N(c3ccc(C)cc3)C2=O)cc(OC)c1O	3.1	-2.4	-0.6	-20.2	-3.3	-2.4	2646
COc1cnc(-c2ccccc2)nc1Sc1ccccc1	-2.4	2.4	-2.5	-1.3	10.0	-2.0	4764
O=C(NC1CCN(Cc2cccc([N+](=O)[O-])c2)CC1)c1ccccc1	3.1	0.8	2.2	-9.8	0.8	8.0	3066

6 compounds from above, limited to Mtb hypoxia rep:
molecule	Mtb hypoxia rep
Cc1cccc(NC(=O)CSc2nc3[nH]c(=O)cc(O)c3s2)c1	10.1
C=CCNc1nc(-c2ccc3c(c2)OCCO3)cs1	12.7
COc1ccc(S(=O)(=O)N(CC(=O)NCc2ccco2)c2ccc(F)cc2)cc1	12.7
CC(=O)N1N=C(c2cccc([N+](=O)[O-])c2)OC1c1cccc(Br)c1 (stereo not given)	-3.2
COc1cc(/C=C2\C(=O)NC(=O)N(c3ccc(C)cc3)C2=O)cc(OC)c1O	3.1
COc1cnc(-c2ccccc2)nc1Sc1ccccc1	-2.4
